Vif TR-FRET – HIV-1 Vif–A3G interaction blockers – biochemical, TR-FRET, GST-Vif 1-94, biotin-A3G peptide, dose response retest, primary screen (AID 1117319). TR-FRET GST-Vif / biotin-A3G peptide binding; higher % means a stronger effect; test concentration not given here; strong numbers were not always called active. hit rate 0.57% among 260,000. one-dose inhibition, %; IC50 in µM for titrated hits;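 active means above the screen mean plus three standard deviations and confirmed in dose response; inconclusive means results disagree or hit not tested in dose response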;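 further: Vif residues 1-94 fused to GST binding biotinylated APOBEC3G peptide 110-148; 0% = full assay without inhibitor and 100% = GST in place of GST-Vif; retest series ran down from 100 µM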
Beta apoptosis – blocks beta cell apoptosis | protection from apoptosis, % (test concentration not listed) | hit rate 0.8% among 300,000 | AID 435005 | INS-1E cytokine-induced death, ATP luminescence, 48 h; percent of positive-control rescue, neutral wells zero;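 active means all replicates at 75% or more, or half of them and the mean; inconclusive means half reach 75% but not the mean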;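 further: 0% = cytokine-treated negative control wells and 100% = positive control rescue; higher means more ATP so stronger rescue from cytokine killing; wells of about 40 µL received 100 nL stock; the first replicate is given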
LANA-H2A inh – blocks KSHV LANA binding to histone H2A/H2B; inhibition, % (test concentration not listed); cell-free LANA-H2A/H2B peptide, fluorescence polarization; hit rate 0.6% among 320,000; in the data active means inhibition mostly above about 10%, no sharp cut-off; inactive means mostly below about 6.7%;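 further: stock transfer was 7.5 nL into about 10 µL; 0% = median of vehicle wells and 100% = median of positive control wells; one replicate is shown; the record names a cut of 25% in any replicate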
Target sequence (Q9QR71 whole entry, looked up): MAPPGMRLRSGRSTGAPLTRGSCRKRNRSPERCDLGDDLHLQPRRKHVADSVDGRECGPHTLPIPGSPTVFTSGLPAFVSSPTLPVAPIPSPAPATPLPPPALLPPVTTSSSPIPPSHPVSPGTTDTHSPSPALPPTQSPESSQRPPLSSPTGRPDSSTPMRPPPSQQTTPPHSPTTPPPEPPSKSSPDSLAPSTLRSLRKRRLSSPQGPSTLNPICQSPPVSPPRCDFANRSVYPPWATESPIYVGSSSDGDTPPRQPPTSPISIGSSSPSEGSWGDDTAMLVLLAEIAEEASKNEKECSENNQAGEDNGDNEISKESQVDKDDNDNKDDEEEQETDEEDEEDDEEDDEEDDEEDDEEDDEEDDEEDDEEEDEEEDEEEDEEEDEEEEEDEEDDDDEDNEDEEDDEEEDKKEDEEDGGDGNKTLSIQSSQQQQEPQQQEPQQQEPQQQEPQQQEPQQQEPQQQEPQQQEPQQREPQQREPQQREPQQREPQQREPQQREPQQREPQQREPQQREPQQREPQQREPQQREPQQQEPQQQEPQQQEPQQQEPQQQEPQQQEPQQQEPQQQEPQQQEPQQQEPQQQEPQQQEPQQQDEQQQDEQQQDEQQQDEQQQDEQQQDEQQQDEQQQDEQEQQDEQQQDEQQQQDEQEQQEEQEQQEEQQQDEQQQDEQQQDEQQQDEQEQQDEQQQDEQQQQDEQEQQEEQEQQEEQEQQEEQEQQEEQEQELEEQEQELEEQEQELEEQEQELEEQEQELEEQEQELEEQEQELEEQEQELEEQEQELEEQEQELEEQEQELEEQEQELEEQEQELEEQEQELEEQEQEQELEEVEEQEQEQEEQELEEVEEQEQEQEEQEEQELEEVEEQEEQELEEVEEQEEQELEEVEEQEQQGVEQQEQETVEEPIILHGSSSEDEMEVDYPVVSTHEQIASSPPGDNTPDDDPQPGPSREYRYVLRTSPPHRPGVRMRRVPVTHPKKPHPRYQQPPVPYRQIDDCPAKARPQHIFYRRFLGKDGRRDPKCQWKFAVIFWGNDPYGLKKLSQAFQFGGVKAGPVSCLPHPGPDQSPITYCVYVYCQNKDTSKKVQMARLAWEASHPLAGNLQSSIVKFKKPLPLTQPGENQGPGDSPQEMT
RanGTP-Imp inh – disruptors of Ran-importin-beta complex formation – biochemical, FRET, CFP-Ran, YFP-importin-beta, homogeneous, primary screen | cell-free CFP-Ran/YFP-importin-beta FRET ratio | inhibition, % (test concentration not listed) | hit rate 1.1% among 300,000;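 active means most replicates above 15%; inconclusive means exactly half above 15%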;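 further: 0% = DMSO wells and 100% = Ran loaded with GDP instead of GTP; wells of about 40 µL received 100 nL stock; the first replicate is given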
T cruzi repl – blocks replication of Trypanosoma cruzi. hit rate 1.4% among 300,000. inhibition, % (test concentration not listed). T. cruzi beta-gal in NIH3T3, luminescence, 90 h;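 active means mean inhibition across valid replicates above about 55%, limit read from the data; inconclusive means mean below that limit but half or more replicates reach it; inactive means mean below it, under half of replicates reach it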;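 further: signal also drops with host cell toxicity which is not excluded here; 0% = plate median of DMSO wells and 100% = zero luminescence signal; higher percent means less beta-gal luminescence so fewer parasites; stock transfer was 50 nL into about 50 µL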
Calb FLC – C. albicans growth modulation with fluconazole. C. albicans CaCi-2 (fluconazole-resistant clinical isolate) + fluconazole, Alamar Blue growth, 48 h. growth inhibition, % (test concentration not listed). hit rate 0.57% among 300,000;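 active means most replicates above 75%; inconclusive means exactly half above 75%; inactive means most below 75%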;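 further: all wells also contain fluconazole at 8 µg/ml as a sub-toxic cotreatment; 0% = median of DMSO wells and 100% = median of geldanamycin control wells; wells of about 8 µL received 7.5 nL stock; the first replicate is given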
A1 inh – inhibitors of the anti-apoptotic protein A1, read as caspase activation; MEF A1-2A-BIM cells, Caspase-Glo 3/7 luminescence, 3 h; percent of clofoctol response, vehicle zero; caspase activation, % (no concentration beside the values); hit rate 0.066% among 330,000; AID 2462;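 active means over half of replicate activation scores above 10%, or exactly half above 10 with the replicate mean above 10; inconclusive means replicate mean below 10 yet half the replicates above 10; inactive means over half of replicates below 10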;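 further: wells of about 30 µL received 50 nL stock; many hits fall short of the cut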
AF4-AF9 inh – blocks AF4 peptide binding to human AF9; P42568; AlphaScreen, biotin-AF4 peptide binding to FLAG-AF9; inhibition, % at 10 µM; hit rate 0.47% among 350,000;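 active means every replicate reaching a set inhibition limit, whatever the replicate mean, cut at about 25% in these data; inconclusive means mean inhibition reaches that limit but some replicates miss it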;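 further: 0% = plate neutral control median and 100% = total signal loss; the record names both 10 and 1 µM as test concentration; the first replicate is given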
The depositor's hits bear a star; i = inactive; ? = inconclusive; . = not tested or not shown.

SMILES	Vif TR-FRET	Beta apoptosis	LANA-H2A inh	RanGTP-Imp inh	T cruzi repl	Calb FLC	A1 inh	AF4-AF9 inh
CCN(CC)C(=O)c1nc[nH]c1C(=O)N1CCN(C(=O)OC(C)(C)C)CC1	.	-6	-3.9	.	.	.	-0.7	-0.8
Oc1ccccc1C1N=C(c2ccccc2)NC(c2ccccc2)=N1	-3%	4	-0.1	4.0	-9	7	0.0	.
O=C(CCNc1n[nH]c(=O)[nH]c1=O)N/N=C/c1ccc(Cl)cc1	-3%	.	2.2	5.7	-8	4	-0.5	-3.1
COc1ccc(C(=O)Nc2ccc(O)c3ccccc23)cc1OC	.	-2	1.2	-0.9	-3	-12	0.1	-0.2
CC(Sc1nnc(CN2CCCC2)n1Cc1ccccc1)C(=O)Nc1ccccc1 (stereo not given)	-8%	-7	i	.	.	.	0.0	?
CC(C)Nc1nc(NC(C)C)nc(N(C)n2cnnc2)n1	3%	2	1.3	-0.7	-5	-3	-0.3	.
O=C(Cn1cnc(S(=O)(=O)N2CCCC2)c1)Nc1cccc(Br)c1	.	-6	2.3	3.1	-12	5	-1.4	0.1
COc1ccc(C2=NC(C(F)(F)F)(C(F)(F)F)c3c(n(C)c(=O)n(C)c3=O)N2)cc1	3%	.	-1.3	3.3	-11	15	-0.5	.
CC(=O)c1ccc(NC(=O)c2ccn[nH]2)cc1	-4%	8	6.2	3.4	-11	7	-7.3	.
COC(CN(C)C(=O)C1CCCN(S(=O)(=O)c2ccc3c(c2)oc(=O)n3C)C1)OC (stereo not given)	-9%	-8	4.5	5.9	-5	6	0.0	-0.6
C=CCn1cc(C(=O)NCC2CCCO2)c(=O)c2cc(S(=O)(=O)N3CCCCCC3)ccc21 (stereo not given)	3%	8	3.7	.	.	.	-0.7	.
CC(=O)Nc1ccc(NC(=O)c2cc(-n3cnnc3)ccc2Cl)cc1	?	-1	4.2	0.3	-1	5	-1.1	0.5
CC/C(=N\NC(=S)Nc1cccc(C)c1)c1ccccc1	-1%	17	-1.9	5.1	44	5	-0.1	0.3
Cc1cc(NS(=O)(=O)c2ccc(NC(=O)COc3ccc(Cl)cc3Cl)cc2)no1	7%	-2	0.8	-0.5	13	-13	-0.3	2.0
CC(=O)N1N=C(c2ccc3ccccc3c2)OC12CCCC2	.	-5	3.4	-3.2	-4	5	1.1	.
Cc1ccc(-c2cc(C(=O)N3CCCc4ccccc43)no2)cc1	-4%	0	1.8	-0.5	5	0	0.3	-0.4
N#C/C(=C\c1cc2c(cc1Br)OCO2)C(=O)NCC1CCCO1 (stereo not given)	-13%	-10	0.7	-2.9	-11	-30	0.1	0.6
Cc1c(C#N)c(N)nc2c3c(sc12)NC(=O)CC3c1ccccc1 (stereo not given)	.	1	-3.0	6.5	-4	-11	-0.5	.
C=CC(=O)NCCCc1cc(C(C)(C)C)c(O)c(C(C)(C)C)c1	12%	-7	2.0	-1.4	18	-8	0.0	1.7
Cc1ccnc(NS(=O)(=O)c2ccc(NC(=O)c3snnc3C)cc2)n1	.	-1	6.1	1.3	-4	-3	0.5	-2.1
O=C(NNC(=O)c1ccc2ccccc2c1O)Nc1ccc(F)cc1	-1%	2	-5.1	0.2	1	5	0.3	-7.2
Cc1noc(C)c1C(=O)OCC(=O)c1cc(C)n(Cc2ccccc2Cl)c1C	-4%	53	-2.2	3.2	17	22	-1.3	.
Cc1nc2ccccn2c(=O)c1NC(=O)c1cccs1	4%	-10	-2.2	-0.3	-5	1	-0.4	0.6
Cc1[nH]c2ccc(OCc3ccccc3)cc2c1CCN1C(=O)OC(C)(C)C1(C)O (stereo not given)	14%	2	2.3	?	15	4	0.5	15
CCN(CC)S(=O)(=O)c1ccc(/C=C/C(=O)OCC(=O)Nc2ccc(C(N)=O)cc2)cc1	-11%	1	4.4	3.6	-15	-2	-0.2	-0.3
Cc1ccc(S(=O)(=O)Nc2ccc3ncccc3c2)cc1	20%	47	-2.3	.	-60	-6	0.5	.
COc1cc(CCCN2C(=S)NC[C@@H]2Cc2ccccc2)cc(OC)c1OC	0%	7	1.2	-3.1	1	-5	-0.1	2.2
Cc1cc(C)n(/N=C/c2cc([N+](=O)[O-])ccc2O)c(=O)c1	-8%	5	-3.8	-6.1	-19	-6	-0.6	-0.2
O=C1C2C3CCC(C3)C2C(=O)N1CNc1ccc(F)cc1 (stereo not given)	5%	-1	1.5	8.9	8	-6	-0.3	.
O=[n+]1cc(-c2ccc(F)cc2)n([O-])c2c1CCC2	11%	3	-3.6	4.2	-21	-1	-0.1	.
O=C(Nc1ccc(NC(=O)c2cccs2)cn1)c1ccco1	24%	.	3.9	7.1	4	-1	-3.3	.
O=C(O)C1CCCCC1C(=O)Nc1ccccc1Cl (stereo not given)	-6%	1	-6.0	-0.2	-5	-4	0.5	.
CC(NC(=O)Cn1c(NCCO)nc2ccccc21)C1CC2CCC1C2 (stereo not given)	.	0	-1.1	2.1	-14	-10	-0.2	3.1
CCOc1ccc(CONS(=O)(=O)c2ccc(NC(C)=O)cc2)cc1Cl	.	5	-6.7	?	-5	-17	-0.1	-2.2
CC1(C)C[C@@H]2C[C@@](C)(CN2C(=O)c2ccccc2)C1	6%	-8	-2.6	-1.8	-15	0	0.0	-0.2
C/C(=N/NS(=O)(=O)c1cccc([N+](=O)[O-])c1)c1ccncc1	-1%	-13	3.9	0.3	5	-10	0.3	-2.8
CCN(C(=O)C(C)OC(=O)c1nn(-c2ccccc2C(F)(F)F)cc1O)c1ccccc1 (stereo not given)	-7%	-3	-0.7	.	.	.	2.8	-0.3
COc1ccc(NC(=O)CSc2nc(C)c3c(c2C#N)CCCC3)cc1	-27%	3	-4.1	?	8	-13	-0.2	.
CCCOc1ccc(-c2nn(-c3ccccc3)cc2/C=C2\SC(N)=NC2=O)cc1C	.	2	-2.4	-8.0	56*	-1	-0.4	-40
Cc1cccc(N2CCN(C(=S)NCc3ccco3)CC2)c1C	.	-7	0.3	2.7	-13	7	-0.4	.
O=C(O)CCC(=O)NCCc1cccc(Cl)c1	0%	-5	7.6	.	-9	2	1.1	-2.1
COc1ccc(CCNC(=O)NC23CC4CC(CC(C4)C2)C3)cc1	-4%	9	0.7	5.7	14	-8	0.6	-40
Cc1ccc(C(=O)N2CCCC(c3ccccc3)=N2)cc1	3%	2	-5.7	5.7	18	-24	-0.2	1.7
CNC(=O)NC(=O)CSc1nnc(C(F)(F)F)n1C	-6%	7	2.4	-1.4	-13	-7	0.9	.
COc1ccc2nc(NC(=O)CSc3nnc(-c4ccoc4C)n3C)sc2c1	3%	1	1.0	-4.1	-8	3	-0.8	.
CC(=O)N1CCc2cc(S(=O)(=O)CCC(=O)Nc3ccc(Cl)cc3F)ccc21	-5%	.	0.7	2.9	2	5	0.2	2.0
CC(=O)c1ccc(OCc2cc(C(=O)N(C)Cc3nc4c(C)cccc4[nH]3)no2)cc1	?	.	-4.3	-3.5	7	5	-0.1	-2.8
CN(C(=O)CCc1nnc(-c2ccc(-c3ccccc3)cc2)o1)C1CCOCC1	8%	8	15*	1.0	4	-8	-0.5	-9.2
Cc1ccc(NC(=O)c2sc3ncn(CC(=O)N4CCN(c5ccccn5)CC4)c(=O)c3c2C)cc1F	-9%	6	2.6	2.6	11	6	0.6	1.3
O=C(O)c1ccc2c(c1)OCCCO2	-8%	-5	-2.9	6.4	0	-10	0.1	3.1
(list continues)
SMILES	Vif TR-FRET	Beta apoptosis	LANA-H2A inh	RanGTP-Imp inh	T cruzi repl	Calb FLC	A1 inh	AF4-AF9 inh
COc1ccccc1-c1cc(C(F)(F)F)nc(S(=O)(=O)CCCC(=O)NCc2ccc(F)cc2)n1	5%	-29	-0.1	1.4	-37	-22	1.0	-1.3
CC[C@@]1(C(=O)OC)N[C@H](CN(C)S(=O)(=O)c2ccc(-c3ccccc3)cc2)[C@@H]2C(=O)N(C)C(=O)[C@@H]21	.	2	-169	.	.	.	0.6	-1.4
COC(=O)C(NS(=O)(=O)c1ccccc1Cl)c1ccccc1 (stereo not given)	1%	-1	-0.1	0.4	-4	-11	1.6	-8.6
CC(=O)Nc1ccc(NC(=O)C2CC(=O)N(c3ccc(Cl)cc3)C2)cc1 (stereo not given)	2%	-1	-2.2	-2.3	8	-1	0.0	-19
Cc1cccc(C)c1Oc1nc(-c2ccccc2)ncc1S(=O)(=O)c1ccccc1	17%	7	-3.1	3.6	21	-2	0.2	.
O=C(c1ccccc1)C1CN(Cc2ccccc2)CCC1(O)c1ccccc1 (stereo not given)	.	-10	0.0	?	-4	-10	1.1	9.3
COc1ccc2oc(C(=O)OCC(=O)N(C)CC(=O)Nc3ccc(F)cc3)c(C)c2c1	3%	0	1.9	-2.2	-6	-9	-0.2	-9.1
Nc1nc(SCC(=O)Nc2cccnc2Cl)n[nH]1	?	-3	0.6	1.0	-9	-19	0.6	-0.7
Cc1cc(C(F)(F)F)nn2cnnc12	-9%	-2	-3.7	1.6	1	2	0.5	-0.1
O=C(O)CN(c1ccccc1F)S(=O)(=O)c1ccccc1	14%	-3	2.9	3.6	-7	-7	-1.5	.
O=C(/C=C/c1ccc(OCCCF)cc1)N1CCOCC1	-2%	6	1.6	-4.3	-1	12	-2.7	-1.4
COc1ccccc1/C=N/NC(=O)CNC(=O)c1ccc(S(=O)(=O)N2CCCC2)cc1	-9%	1	2.4	?	-9	-7	1.2	2.3
CCCCCC(=O)NC(=S)Nc1ccc(N2CCCCC2)c(Cl)c1	29%	-4	6.3	0.2	13	-14	-0.3	.
COc1cccc(NC(=O)C2CCN(S(=O)(=O)c3ccc4c(c3)OCCO4)CC2)c1	3%	6	2.1	-5.5	13	-13	-0.5	.
Cc1ccc(N(C(=O)c2ccc3c(c2)OCO3)C2C=CS(=O)(=O)C2)cc1 (stereo not given)	28%	-4	0.9	-1.3	-7	2	-0.6	.
Cc1ccc(NCC(=O)N=Nc2c(O)n(C)c3ccccc23)cc1	.	0	3.8	?	-9	4	0.1	3.3
Brc1ccc(-c2nnc3c4ccccc4nc(N4CCOCC4)n23)cc1	5%	3	-2.7	0.4	-8	1	0.3	.
COc1ccc(NC(=O)c2ccco2)cc1N	10%	3	3.1	-2.5	24	2	-0.1	.
CCN(CC)CCn1c(=S)[nH]c2cc(C(=O)NCc3ccc(C)cc3)ccc2c1=O	.	-8	2.9	4.0	-2	-3	-0.6	-2.1
CCc1ccc(NC(=O)C/C(C)=N/NC(=O)OCc2ccc(OC)cc2)cc1	.	-1	-1.1	4.0	-2	-4	-0.5	6.7
CCOC(=O)Cc1csc(NC(=O)COc2ccc(OC)cc2)n1	8%	-2	-1.5	2.1	7	-10	-0.6	2.7
COc1ccc(OC)c(S(=O)(=O)N2CCN(CC(O)COc3ccccc3)CC2)c1 (stereo not given)	.	-10	-1.5	4.9	12	-38	0.0	3.5
COc1ccc(CCNC(=O)CN2C(=O)NC(CCSC)C2=O)cc1 (stereo not given)	-3%	-7	-1.3	-2.4	-11	5	-0.1	-1.2
COc1cccc(-c2nc(CS(=O)CC(=O)NCCCOC(C)C)c(C)o2)c1 (stereo not given)	-15%	1	-2.4	-1.7	3	9	-0.4	.
Cc1ccccc1C(=O)NC=C1C(=O)OC(C)(C)OC1=O	.	-7	0.8	-0.2	-5	5	-0.6	-3.7

Bioassay records (PubChem BioAssay)

Compounds were not picked by outcome; 4.3% or so of the library scored in one or more.
